Screens: PubChem, Johns Hopkins Ion Channel Center
KCNQ2 pot: KCNQ2 (rat) channel potentiation; O88943; 310,000 tested, 0.54% active; AID 2239; CHO-K1 KCNQ2, FluxOR thallium flux fluorescence; active compounds read high; B-score at 10 µM;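 active = fluorescence ratio B-score at least 3 SD of library B-scores, with initial fluorescence B-score within 3 SD, cut at about 5.3 in these data; same plate scores as AID 2156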;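 note: B-score of peak minus minimum over baseline fluorescence ratio after K+ and Tl+ stimulus; positive B-score means potentiation of KCNQ2 with more thallium influx and brighter signal; only the inactives scoring about 0 or higher are listed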
Target sequence (O88943 whole entry, looked up): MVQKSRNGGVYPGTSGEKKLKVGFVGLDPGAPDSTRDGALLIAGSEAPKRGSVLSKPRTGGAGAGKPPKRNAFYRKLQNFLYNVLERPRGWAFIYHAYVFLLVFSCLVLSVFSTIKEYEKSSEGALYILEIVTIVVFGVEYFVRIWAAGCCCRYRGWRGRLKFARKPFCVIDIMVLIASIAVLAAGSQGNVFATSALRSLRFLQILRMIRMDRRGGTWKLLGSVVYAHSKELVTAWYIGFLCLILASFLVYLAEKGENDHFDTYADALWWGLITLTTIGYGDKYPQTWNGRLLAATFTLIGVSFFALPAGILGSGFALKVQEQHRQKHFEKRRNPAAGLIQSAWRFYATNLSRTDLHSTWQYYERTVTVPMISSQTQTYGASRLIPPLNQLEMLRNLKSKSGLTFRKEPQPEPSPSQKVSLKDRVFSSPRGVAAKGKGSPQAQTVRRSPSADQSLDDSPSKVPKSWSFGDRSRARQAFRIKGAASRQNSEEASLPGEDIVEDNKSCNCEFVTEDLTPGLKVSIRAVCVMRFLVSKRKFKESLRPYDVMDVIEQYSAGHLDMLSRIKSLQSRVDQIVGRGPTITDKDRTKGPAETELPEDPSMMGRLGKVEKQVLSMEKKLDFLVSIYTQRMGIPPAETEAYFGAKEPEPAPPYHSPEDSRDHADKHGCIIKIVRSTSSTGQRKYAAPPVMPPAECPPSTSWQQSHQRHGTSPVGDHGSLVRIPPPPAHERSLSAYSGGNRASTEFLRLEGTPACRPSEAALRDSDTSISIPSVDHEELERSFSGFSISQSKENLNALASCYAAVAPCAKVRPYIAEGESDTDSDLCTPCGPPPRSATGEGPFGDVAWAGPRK
KCNQ2 pot baseline: also measured in KCNQ2 pot; calls as there; B-score; compound at 10 µM; measured here: initial fluorescence intensity artifact check;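 brightness before thallium and not channel activity; 0 = typical well and far values either way flag optical interference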
An asterisk follows results filed as active. Not all compounds are listed; count on the stated rates, not on these rows.

molecule | KCNQ2 pot | KCNQ2 pot baseline
C[C@@H]1CN(Cc2nc(-c3ccc(Cl)cc3)no2)C[C@H](C)O1 | 1.83 | 0.51
Cc1cc(C)c2nc(NC(=O)CN3C(=O)NC4(CCCC4)C3=O)sc2c1 | 2.39 | -0.02
CCC(C)(C)NC(=O)c1cc(S(=O)(=O)N2CCCCC2)ccc1N1CCOCC1 | 0.45 | -0.46
Cc1ccc(OCC(=O)Nc2cccc(O)c2)cc1C | 0.58 | 0.67
Cc1cc(C)cc(NC(=O)CSc2nc3ccncc3[nH]2)c1 | 0.61 | 1.51
Cn1nnnc1-c1cc(Br)ccc1NC(=O)c1ccccc1 | 0.26 | -0.87
COC(OC)c1ccnc(-c2ccc(OC(=O)c3ccc(F)cc3)cc2)n1 | 1.77 | -0.44
CN(C/C=C/c1ccccc1[N+](=O)[O-])Cc1ccccc1 | 0.47 | -0.99
Cc1ccn2c(=O)c(NC(=O)c3cccs3)c(C)nc2c1 | 0.63 | -0.12
CS(=O)(=O)c1cccc(C(=O)Nc2cccc(-c3nc4ccccc4[nH]3)c2)c1 | 0.57 | 0.3
Fc1ccccc1/C=C1\CCCC2=C1Nc1nnnn1C2c1ccccc1F (stereo not given) | 0.33 | -0.08
COC(=O)c1sc(N2CCN(c3ccc(Cl)cc3)CC2)nc1N | 0.09 | 0.14
Nc1nc2ncc(C(=O)c3cc(Cl)cc(Cl)c3O)cc2s1 | 0.42 | 0.57
CCC(=O)N1CCN=C1SCc1c(F)cccc1Cl | 0.51 | 0.64
Cc1cc(Cl)c2oc(C(=O)N(C)CCCCN3CCOCC3)c(C)c2c1 | 1.68 | -1.12
COc1ccc(CC(=O)Oc2ccc(C(C)(C)C)cc2)cc1S(=O)(=O)N1CCOCC1 | 0.71 | -1.25

Some of the entries so far, with each value named:
> Cc1ccn2c(=O)c(NC(=O)c3cccs3)c(C)nc2c1
  KCNQ2 pot = 0.63 | KCNQ2 pot baseline = -0.12
> CS(=O)(=O)c1cccc(C(=O)Nc2cccc(-c3nc4ccccc4[nH]3)c2)c1
  KCNQ2 pot = 0.57 | KCNQ2 pot baseline = 0.3
> Fc1ccccc1/C=C1\CCCC2=C1Nc1nnnn1C2c1ccccc1F (stereo not given)
  KCNQ2 pot = 0.33 | KCNQ2 pot baseline = -0.08
> COC(=O)c1sc(N2CCN(c3ccc(Cl)cc3)CC2)nc1N
  KCNQ2 pot = 0.09 | KCNQ2 pot baseline = 0.14

(listing goes on)
molecule | KCNQ2 pot | KCNQ2 pot baseline
Cc1ccc(-n2nc3c(c2NC(=O)c2ccc(OC(C)C)cc2)CS(=O)C3)cc1 (stereo not given) | 0.39 | 0.48
CCCNCc1cc(OCC)c(OCC(N)=O)cc1Br | 0.21 | -0.15
COc1ccccc1N1CCN(C(=O)CC2NC3CCCCC3NC2=O)CC1 (stereo not given) | 0.79 | -0.8
Cc1ccc(S(=O)CCNC(=O)Cc2ccccc2)cc1 (stereo not given) | 1.35 | -0.57
COc1ccccc1N(CC(=O)Nc1ccc2c(c1)OCCO2)S(=O)(=O)c1ccc(C)cc1 | 0.83 | 1.33
COc1ccc(O)c(C(=O)c2cnc3c(c2)c(C)nn3C)c1 | 0.02 | -0.56
C#CCOCCOCCOCCNc1nc(N2CCN(C(=O)C([C@@H](C)CC)n3cc(C(N)CC(C)C)nn3)CC2)nc(N2CCN(C(=O)[C@H](CCC(=O)O)n3cc(C(N)Cc4ccc(O)cc4)nn3)CC2)n1 (stereo not given in full) | 0.22 | -0.41
CCCc1nc(SCC(=O)Nc2nc3c(s2)CCCC3)c2ccccc2n1 | 0.94 | 0.4

The last 4 entries of the part above lead into the next:
molecule | KCNQ2 pot | KCNQ2 pot baseline
COc1ccccc1N(CC(=O)Nc1ccc2c(c1)OCCO2)S(=O)(=O)c1ccc(C)cc1 | 0.83 | 1.33
COc1ccc(O)c(C(=O)c2cnc3c(c2)c(C)nn3C)c1 | 0.02 | -0.56
C#CCOCCOCCOCCNc1nc(N2CCN(C(=O)C([C@@H](C)CC)n3cc(C(N)CC(C)C)nn3)CC2)nc(N2CCN(C(=O)[C@H](CCC(=O)O)n3cc(C(N)Cc4ccc(O)cc4)nn3)CC2)n1 (stereo not given in full) | 0.22 | -0.41
CCCc1nc(SCC(=O)Nc2nc3c(s2)CCCC3)c2ccccc2n1 | 0.94 | 0.4
CN(C)c1ccc(-n2cccc2/C=N/n2cnnc2)cc1 | 0.01 | 0.33
S=c1nc2c(n[nH]1)c1ccccc1n2CCc1ccccc1 | 0.94 | -1.88
COc1ccc([N+](=O)[O-])cc1NC(C)C | 0.48 | -0.01
CCSc1nc2[nH]ncc2c(=O)[nH]1 | 0.56 | 1.55
NC(=O)c1ccc(F)cc1 | 0.27 | 0.39
CCCn1c(=O)c(-c2nc3ccccc3[nH]2)c(O)c2ccccc21 | 0.1 | -1.55
Cc1c(NC(=O)c2nn(C)c(=O)c3ccccc23)c(=O)n(-c2ccccc2)n1C | 0.03 | -0.1
Cc1ccnc2nc(C(=O)OCCOc3ccc(F)cc3)nn12 | 0.17 | 0.28
Cn1nc(C(C)(C)C)cc1C(=O)NCc1ccc2c(c1)OCO2 | 0.76 | 1.32
O=C(NCc1ccco1)c1ccc(S(=O)(=O)c2cccc(S(=O)(=O)N3CCOCC3)c2)cc1 | 0.03 | 0.2
c1ccc(C2=NCCCN2)cc1 | 0.42 | -0.26
O=C(CCN1C(=O)c2ccncc2C1=O)Nc1ccc2c(c1)OCCO2 | 1.5 | 0.43
CC(Sc1nccn1C)C(=O)Nc1ccccc1 (stereo not given) | 0.93 | -0.01
Cc1nn2c(nc(N3CCCCC3)c3ccccc32)c1C=O | 1.24 | -1.25
Cc1ccc(S(=O)(=O)Nc2ccccc2C(O)c2ccccc2)cc1 (stereo not given) | 0.44 | -0.06
CCCCc1ccc(NC(=O)NCc2cccnc2)cc1 | 0.61 | -0.15

One compound at a time (already shown). Order of values: KCNQ2 pot, KCNQ2 pot baseline
`Cc1nn2c(nc(N3CCCCC3)c3ccccc32)c1C=O` in the list: 1.24, -1.25
`CN(C)c1ccc(-n2cccc2/C=N/n2cnnc2)cc1` in the list: 0.01, 0.33
`Cc1cc(C)cc(NC(=O)CSc2nc3ccncc3[nH]2)c1` in the list: 0.61, 1.51
`Cc1ccc(OCC(=O)Nc2cccc(O)c2)cc1C` in the list: 0.58, 0.67
`O=C(CCN1C(=O)c2ccncc2C1=O)Nc1ccc2c(c1)OCCO2` in the list: 1.5, 0.43

Other structures follow:
molecule | KCNQ2 pot | KCNQ2 pot baseline
O=C(CCCC(=O)NCc1ccccc1)NCc1ccccc1 | 0.74 | 0.11
O=C(Nc1ccccc1C(F)(F)F)N1CCN(C(c2ccccc2)c2ccccc2)CC1 | 1.16 | 0.37
CN(C)S(=O)(=O)c1cc(NC(=O)CN2CCN(c3ccccc3O)CC2)ccc1Cl | 0.02 | -2.88
COc1ccc(NC(=O)N2CCCC2C(=O)Nc2ccc(C)cc2)cc1 (stereo not given) | 0.03 | 0.23
O=C(NCCN1C(=O)S/C(=C\c2cccnc2)C1=O)c1ccc([N+](=O)[O-])s1 | 1.14 | -0.27
CCN(CC)C(=O)Cn1cc(C(=O)C(=O)NCCc2ccccc2)c2ccccc21 | 0.01 | 0.62
Cc1ccc(/C=N/NC(=O)c2nnn(-c3nonc3N)c2CSc2ccccc2)o1 | 0.21 | 0.35
COc1ccc(C(=O)OC(C)CN2CCN(C)CC2)cc1OC (stereo not given) | 1.35 | 0.23
Cn1c(-c2ccc3ccccc3n2)nc2cnccc21 | 0.88 | 0.3
O=C(Cn1ncc2c([nH]c3ccccc32)c1=O)N1CCN(c2ccccc2F)CC1 | 0.93 | -0.84
COc1cccc(NC(=O)Nc2cc(C)ccc2OC)c1 | 0.02 | -0.34
O=C(c1ccco1)N1CCCSC1=Nc1ccccc1 | 0.13 | 1.29
COc1ccc(CNS(=O)(=O)c2ccc(-c3cc(C)no3)cc2)cc1 | 0.93 | -0.33
CCn1c(SCC(=O)Nc2sc(C)c(C)c2C#N)nnc1C1CC1 | 0.69 | -0.24
CCOC(=O)N1CCN(S(=O)(=O)c2cc(Cl)ccc2Cl)CC1 | 1.74 | -0.79
CC(C)=CCN1CCN(Cc2ccc(N3CCNC3=O)cc2)CC1CCO (stereo not given) | 0.31 | 0.28
O=C(Cn1c(-c2cncs2)nc2ccccc21)NCc1ccccc1 | 1.19 | 1.22
CCSc1nnc(NC(=O)c2cc(OC)c(OC)c(OC)c2)s1 | 0.05 | -0.56
COC(=O)c1nn(-c2ccccc2)ccc1=O | 0.63 | -0.01
CC(=O)c1ccc(S(=O)(=O)NC2CCCCCCC2)cc1 | 1.5 | 0.5
COc1ccc(-c2ccncc2)cc1OC | 0.1 | 0.22
CCc1nnc(NC(=O)CN2CCN(C(=O)c3ccccc3)CC2)s1 | 0.11 | 0.05
Cc1cc(NC(=O)CSc2ccc(-c3nc4cc(C)c(C)cc4[nH]3)cn2)no1 | 1.66 | 0.09
O=C(Cc1noc2ccccc12)Nc1ccc2ccccc2c1 | 1.13 | -1.32
COc1ccc(CNC(=O)Nc2cccc3ccccc23)cc1 | 0.34 | -0.61
CCc1ccc(C(=O)NNC(=O)CCC2CCCCC2)cc1 | 4.54 | 0.16
Cc1ccc(NC(=O)CCSc2nnc(C)o2)cc1 | 1.63 | -0.48
COc1cccc(NC(=O)c2ccc(NC(=O)C3CC(=O)OC34CCCCC4)cc2)c1 (stereo not given) | 0.55 | -0.93
O=C(CNCc1cccnc1)Nc1cc(C(F)(F)F)ccc1N1CCOCC1 | 0.51 | -1.21
Cn1cc(Cl)c(C(=O)OCC(=O)c2ccccc2)n1 | 0.35 | -0.16
